Bioassay records: PubChem BioAssay, Broad Institute
DUX4 inh = blocks DUX4-driven transcriptional activation. AID 1224904. 293T-iDUX4 ZSCAN4-Gaussia luciferase reporter, 24 h; active compounds read low. activity change, negative = inhibition, % (concentration not given with the values). hit rate 0.8% among 37,000;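 active means -10% or lower and over 25 points stronger than a control reporter; inconclusive means -10% or lower with a smaller gap; inactive means above -10%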;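 further: 0% = median of neutral control wells and -100% = median of positive control wells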
DUX4 inh difference = also measured in DUX4 inh; calls as there; Gaussia minus Italica difference, %; measured here: selective DUX4 reporter inhibition;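 worked out from the two reporters; negative = selective loss of the DUX4 reporter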
DUX4 inh control = second read-out of DUX4 inh, no call of its own (marks repeat the call); activity change, negative = inhibition, %; measured here: Italica tet-on control reporter;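 0 = neutral control and -100 = positive control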
Active calls of the source: *; ? = inconclusive; . = not tested or not shown.

SMILES,DUX4 inh,DUX4 inh difference,DUX4 inh control
C[C@H]1CN([C@@H](C)CO)S(=O)(=O)c2ccc(Br)cc2O[C@H]1CN(C)C(=O)c1cccnc1,2,5,-2.3
COc1ccc(S(=O)(=O)Nc2ccc3c(c2)C(=O)N([C@@H](C)CO)C[C@H](C)[C@H](CN(C)Cc2ccncc2)O3)cc1,1,0,0.2
C[C@@H]1CN([C@@H](C)CO)C(=O)c2cc(NC(=O)Nc3ccc(C(F)(F)F)cc3)ccc2O[C@H]1CN(C)Cc1ccc(C(=O)O)cc1,1,-5,5.2
C[C@@H](O)C#Cc1ccc2c(c1)O[C@@H](CN(C)C(=O)C1CCCCC1)[C@@H](C)CN([C@@H](C)CO)S2(=O)=O,-3,-2,-0.5
O=C(C[C@@H]1CC[C@@H]2[C@H](COC[C@H](O)CN2Cc2cccc(F)c2)O1)NCC1CCCCC1,5,-4,8.5
CCNC(=O)[C@@H]1[C@@H](CO)[C@@H]2Cn3c(ccc(-c4ccncc4)c3=O)[C@H]1N2CC1CC1,-1,-2,0.9
CN1CCN(C(=O)C[C@@H]2CC[C@H]3[C@@H](COC[C@H](O)CN3CC3CCOCC3)O2)CC1,7,10,-3.2
CCc1csc(N2[C@H](C#N)[C@@H](c3ccc(-c4cccc(F)c4)cc3)[C@H]2CO)n1,0,6,-5.5
CCCC#Cc1ccc([C@@H]2[C@@H](CO)N3C(=O)CN(C(=O)Nc4ccccc4F)C[C@H]23)cc1,1,1,-0.7
O=C(Nc1ccc(F)cc1)N1CC(=O)N2[C@H](C1)[C@H](c1ccc(-c3cccc(F)c3)cc1)[C@@H]2CO,-1,-3,1.6
CCS(=O)(=O)N1CC(=O)N2[C@@H](CO)[C@H](c3ccc(C#CCC(C)C)cc3)[C@@H]2C1,8,0,7.3
C/C=C/c1ccc([C@@H]2[C@@H](CO)N3C(=O)CN(C(=O)Nc4ccc(F)cc4)C[C@@H]23)cc1,0,-5,4.6
COC(=O)C[C@@H]1C[C@H]2c3cc(NC(=O)CC4CC4)ccc3O[C@H]2[C@@H](CO)O1,10,6,3.7
COCC(=O)Nc1ccc2c(c1)C(=O)N(C)C[C@@H](OC)[C@H](C)CN(Cc1cccc(F)c1)[C@@H](C)CO2,2,-1,2.8
CCCC#Cc1ccc([C@H]2[C@@H](C#N)N(C(=O)CN3CCOCC3)[C@@H]2CO)cc1,-1,2,-3.5
COc1ccccc1NC(=O)N1C[C@@H](C)[C@H](OC)CN(C)C(=O)c2ccc(NC(=O)c3cc(C)on3)cc2OC[C@H]1C,-4,-11,7.1
C[C@H](CO)N1C[C@H](C)[C@@H](CN(C)CC2CCCC2)Oc2ncc(C#Cc3cccc(F)c3)cc2C1=O,2,4,-2.2
CN(C)C(=O)c1ccc(-c2ccc3c(c2)[C@H]2[C@H](CCN2C(=O)c2cnccn2)[C@@H](CO)N3)cc1,27,11,16
O=C(c1cnccn1)N1CC(=O)N2[C@H](CO)[C@H](c3ccc(/C=C/c4ccccc4)cc3)[C@@H]2C1,-1,1,-2.3
Cc1cccc(S(=O)(=O)N2[C@@H]3c4cccc(=O)n4C[C@H]2[C@H](CO)[C@H]3C(=O)NC2CCC2)c1,-2,-3,0.8
CC=Cc1ccc2n(c1=O)C[C@H]1[C@H](CO)[C@@H](C(=O)NCc3ccccc3)N(S(C)(=O)=O)[C@@H]21 (mixture of isomers),0,-5,4.9
CN(C)c1ccc2c(c1)[C@@H]1C[C@@H](CC(=O)NCc3cccc(F)c3)O[C@@H](CO)[C@@H]1O2,-2,-1,-1.8
CNC(=O)C[C@H]1CC[C@@H]2[C@H](COC[C@@H](O)CN2C(=O)c2ccc3c(c2)OCO3)O1,6,8,-2.2
N#C[C@@H]1[C@H](c2ccc(-c3ccc(F)cc3)cc2)[C@@H](CO)N1c1nc(-c2ccccc2)cs1,-4,0,-3.6
CCC(=O)N1CCC2(CC1)CN(Cc1nccs1)[C@@H](CO)c1c2c2ccc(OC)cc2n1C,19,9,10
CO[C@H](CN(C)S(=O)(=O)c1ccc(F)cc1)[C@H](C)CN([C@H](C)CO)S(=O)(=O)c1cccc(Cl)c1,0,-5,5.3
CN(C)CC(=O)N1CC2(C1)[C@H](c1ccccc1)[C@H](CO)N2C(=O)C1CCCC1,6,2,4.6
C[C@H]1CN([C@@H](C)CO)C(=O)CCCn2nncc2CO[C@@H]1CN(C)Cc1ccccc1C(F)(F)F,-2,1,-2.8
CN1C(=O)c2cc(NC(=O)c3cccc(C(F)(F)F)c3)ccc2OC[C@@H]2O[C@@H](CC(=O)O)CC[C@@H]21,1,3,-2.4
O=C(O)C[C@H]1C[C@H]2c3cc(NC(=O)CC4CC4)ccc3O[C@H]2[C@@H](CO)O1,5,4,1.6
CCCC(=O)Nc1ccc2c(c1)OC[C@H](C)N(C(=O)CN(C)C)C[C@@H](C)[C@@H](OC)CN(C)C2=O,-1,-6,4.2
COc1ccc(NC(=O)Nc2cccc3c2O[C@@H](CN(C)Cc2ccc(C(=O)O)cc2)[C@@H](C)CN([C@H](C)CO)C3=O)cc1,-3,-1,-1.8
CCCC#Cc1ccc([C@H]2[C@H](C#N)N(C(=O)C3CCC3)[C@H]2CO)cc1,0,-5,4.6
CN1[C@@H]2c3ccc(-c4ccc(F)cc4)c(=O)n3C[C@@H]2[C@@H](CO)[C@@H]1C(=O)NCc1ccccn1,-5,3,-7.8
C[C@@H]1CN([C@H](C)CO)C(=O)c2c(c3ccccc3n2C)-c2ccccc2CO[C@@H]1CN(C)S(=O)(=O)c1cccs1,19,12,6.8
C[C@H]1CCCCO[C@@H](CN(C)C(=O)c2ccncc2)[C@@H](C)CN([C@@H](C)CO)C(=O)c2cc(NS(=O)(=O)c3cn(C)cn3)ccc2O1,-1,-4,3.7
O=C(C[C@H]1CC[C@H]2[C@@H](COC[C@H](O)CN2Cc2cocn2)O1)NCc1cccc(F)c1,3,5,-2.0
OC[C@@H]1[C@H](c2ccc(C3=CCCC3)cc2)[C@@H](CNC2CCCC2)N1CC1CC1,3,3,0.0
O=C(c1cnccn1)N1CC(=O)N2[C@@H](CO)[C@@H](c3ccc(C#CC4CC4)cc3)[C@@H]2C1,9,0,8.8
COc1ccc(CNC(=O)C[C@@H]2CC[C@@H](NC(=O)CN(C)C)[C@H](CO)O2)cc1,-4,-3,-0.2

In a second layout: entries from further up
> OC[C@@H]1[C@H](c2ccc(C3=CCCC3)cc2)[C@@H](CNC2CCCC2)N1CC1CC1
  DUX4 inh = 3
  DUX4 inh difference = 3
  DUX4 inh control = 0.0
> O=C(c1cnccn1)N1CC(=O)N2[C@@H](CO)[C@@H](c3ccc(C#CC4CC4)cc3)[C@@H]2C1
  DUX4 inh = 9
  DUX4 inh difference = 0
  DUX4 inh control = 8.8

More structures
SMILES,DUX4 inh,DUX4 inh difference,DUX4 inh control
O=C(Nc1ccc(F)cc1)N1C[C@@H]2[C@H](c3ccccc31)[C@H](CO)N2C(=O)c1ccccn1,-3,-1,-2.2
CCCC#Cc1ccc([C@@H]2[C@@H](CO)N(C(=O)C3CC3)[C@H]2C#N)cc1,0,-4,3.5
COC(=O)C[C@H]1CC[C@H]2[C@@H](COC[C@@H](O)CN2C(=O)Nc2ccccc2OC)O1,4,2,2.3
O=C(C[C@H]1CC[C@H]2[C@@H](COC[C@@H](O)CN2C(=O)c2cccnc2)O1)NCC1CC1,3,3,-0.5
CC(C)NC(=O)N1C[C@H]2[C@@H](c3ccccc31)[C@H](CO)N2C(=O)NC(C)C,2,4,-1.9
COCCNC(=O)C[C@@H]1C[C@H]2c3cc(NC(=O)CN(C)C)ccc3O[C@H]2[C@@H](CO)O1,5,0,4.7
CO[C@@H]1CN(C)C(=O)c2ccc(NC(=O)C3CCOCC3)cc2OC[C@H](C)N(C(=O)c2ccccc2)C[C@@H]1C,-2,-2,0.2
O=C(C[C@@H]1C[C@@H]2c3cc(NC(=O)c4cccnc4)ccc3O[C@@H]2[C@H](CO)O1)NCc1ccccn1,6,8,-2.0
O=C(C[C@H]1C[C@H]2c3cc(NC(=O)C4CCC4)ccc3O[C@H]2[C@H](CO)O1)NC1CCCC1,1,2,-1.0
COc1cc(CN2CC3(CCN(C(=O)NC(C)C)CC3)c3c(n(C)c4cc(OC)ccc34)[C@@H]2CO)cc(OC)c1,-5,-8,3.5
C[C@H]1CN([C@@H](C)CO)C(=O)CCCn2cc(nn2)CO[C@@H]1CN(C)C(=O)c1ccncc1,7,6,0.9
CCCNC(=O)C[C@H]1CC[C@H]2[C@@H](COC[C@@H](O)CN2C(=O)c2cc(Cl)cc(Cl)c2)O1,11,3,7.3
CC=Cc1ccc2n(c1=O)C[C@H]1[C@H](CO)[C@@H](C(=O)NCCC)[C@@H]2N1CC1CCOCC1 (mixture of isomers),0,0,-0.3
C[C@H]1CN([C@@H](C)CO)C(=O)CCCn2nncc2CO[C@H]1CN(C)Cc1ccc2c(c1)OCO2,6,4,2.0
C[C@@H]1CN([C@H](C)CO)C(=O)c2cc(NS(=O)(=O)c3ccc(Cl)cc3)ccc2O[C@@H]1CN(C)CC1CCCCC1,-2,0,-1.4
C[C@@H]1CN([C@@H](C)CO)C(=O)CCCn2cc(nn2)CO[C@@H]1CN(C)C(=O)c1ccc2ccn(C)c2c1,10,15,-5.9
CNC[C@@H]1Oc2ncc(/C=C/c3ccccc3)cc2C(=O)N([C@@H](C)CO)C[C@@H]1C,8,-2,10
N#C[C@@H]1[C@@H](c2ccc(-c3cccnc3)cc2)[C@H](CO)N1C(=O)C1CC1,0,-6,5.8
O=C(c1cnccn1)N1CC(=O)N2[C@H](C1)[C@H](c1ccc(-c3cccc(F)c3)cc1)[C@@H]2CO,1,7,-6.3
CC(C)(O)C#Cc1ccc([C@H]2[C@@H](CO)N3CCCCN(C(=O)c4cccnc4)C[C@@H]23)cc1,26,26,0.2
CC(C)NC(=O)N1CCCCN2[C@H](CO)[C@@H](c3ccc(Br)cc3)[C@@H]2C1,8,6,2.3
O=C(c1cccc(F)c1)N1CCCCN2[C@@H](CO)[C@H](c3ccc(C#CC4(O)CCCC4)cc3)[C@@H]2C1,?,.,.
C[C@@H]1CN([C@@H](C)CO)C(=O)c2ccccc2-c2ccccc2CO[C@@H]1CN(C)S(=O)(=O)CC(F)(F)F,11,8,2.6
C[C@H](CO)N1C[C@H](C)[C@@H](CN(C)S(C)(=O)=O)Oc2ccc(NC(=O)NC3CCCCC3)cc2C1=O,-5,-4,-0.7
CCC(=O)N1CC[C@H]2[C@@H]1c1cc(-c3ccc(C#N)cc3)ccc1N(C)[C@H]2CO,6,10,-3.5
CC(=O)Nc1ccc2c(c1)C(=O)N(C)[C@H]1CC[C@H](CC(=O)NCc3ccc(Cl)cc3)O[C@H]1CO2,3,3,0.8
C[C@@H](NC(=O)C[C@H]1CC[C@@H]2[C@H](COC[C@@H](O)CN2C(=O)Nc2cccc(Cl)c2)O1)c1ccccc1,-2,-2,0.3
O=C(c1ccccc1F)N1CC(=O)N2[C@H](CO)[C@H](c3ccc(-c4cccnc4)cc3)[C@@H]2C1,5,-1,6.3
CCCC(=O)Nc1ccc2c(c1)OC[C@@H](C)N(Cc1cncnc1)C[C@H](C)[C@@H](OC)CN(C)C2=O,-2,4,-6.3
C[C@H]1CN([C@@H](C)CO)C(=O)CCCn2nncc2CO[C@@H]1CN(C)S(C)(=O)=O,3,2,0.4
CC(C)NC(=O)Nc1ccc2c(c1)C(=O)N(C)[C@H]1CC[C@H](CC(=O)NCC(F)(F)F)O[C@H]1CO2,4,5,-0.2
O=C(Cc1cccnc1)N1CC2(C1)[C@@H](c1ccccc1)[C@@H](CO)N2C(=O)C1CC1,9,2,6.8
N#Cc1ccc(-c2ccc3c(c2)[C@H]2[C@H](CCN2C(=O)c2ccncc2)[C@H](CO)N3)cc1,?,.,.
O=C(C[C@@H]1C[C@H]2c3cc(NC(=O)Nc4ccccc4)ccc3O[C@H]2[C@H](CO)O1)NCc1ccccc1,?,.,.
CCS(=O)(=O)N1CC(=O)N2[C@@H](CO)[C@H](c3ccc(-c4ccccc4F)cc3)[C@@H]2C1,-3,-8,5.6

Ordered by count of non-hydrogen atoms (descending): part of the list above.
SMILES,DUX4 inh,DUX4 inh difference,DUX4 inh control
O=C(C[C@@H]1C[C@H]2c3cc(NC(=O)Nc4ccccc4)ccc3O[C@H]2[C@H](CO)O1)NCc1ccccc1,?,.,.
CC(C)NC(=O)Nc1ccc2c(c1)C(=O)N(C)[C@H]1CC[C@H](CC(=O)NCC(F)(F)F)O[C@H]1CO2,4,5,-0.2
N#Cc1ccc(-c2ccc3c(c2)[C@H]2[C@H](CCN2C(=O)c2ccncc2)[C@H](CO)N3)cc1,?,.,.
O=C(Cc1cccnc1)N1CC2(C1)[C@@H](c1ccccc1)[C@@H](CO)N2C(=O)C1CC1,9,2,6.8

Only part of the results is shown; count on the stated rates, not on these rows.
